# Bioassay records as filed in PubChem BioAssay.
# gsp agonist – qHTS for Agonist of gsp, the Etiologic Mutation Responsible for Fibrous Dysplasia/McCune-Albright Syndrome: qHTS; gsp mutant cells, cAMP HTRF, 30 min; control for the full effect not named in the record; Potency, µM (top dose mostly 76.9 µM), for the others: at the highest dose activation (cAMP increase), usual class: activators; 340,000 compounds, 0.13% hits; AID 624287, 2012; active = well fitted activation curve with a large enough effect; inconclusive = small, poorly fitted or top-dose-only effect, or another doubt; inactive = no such curve, though single readings can be large or run the other way; cell line not stated here;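 further: phosphodiesterase inhibitor Ro 20-1724 added with compounds to block cAMP breakdown; potency means the concentration at half of the fitted maximal effect; nearly all actives have a fitted effect of over 60% in size; about a fifth of the inactives were tested at one dose only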
#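 Cells stably selected in G418 were plated at 2000/well, grown 16-24 hr, then given compounds in DMSO with the PDE inhibitor […] (300 uM solution added) for 30 min at 37C; cAMP was read by HTRF.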
# D2 agonist – Beta-Arrestin HTS for Positive Allosteric Modulators of the Human D2 Dopamine Receptor: Agonists; DiscoveRx PathHunter D2 beta-arrestin, luminescence, 90 min; 100% = 57 uM dopamine signal; D(2) dopamine receptor (Homo sapiens), P14416; 360,000 compounds, 0.084% hits; activation, % (test concentration not listed); AID 624465, 2012; in the data active = activation above about 40%; inconclusive = about 15% to 40%; inactive = below about 15%; further: compound concentration not given in the record; the text of the record calls up to 30% inactive
# Target sequence (P14416 whole entry, looked up): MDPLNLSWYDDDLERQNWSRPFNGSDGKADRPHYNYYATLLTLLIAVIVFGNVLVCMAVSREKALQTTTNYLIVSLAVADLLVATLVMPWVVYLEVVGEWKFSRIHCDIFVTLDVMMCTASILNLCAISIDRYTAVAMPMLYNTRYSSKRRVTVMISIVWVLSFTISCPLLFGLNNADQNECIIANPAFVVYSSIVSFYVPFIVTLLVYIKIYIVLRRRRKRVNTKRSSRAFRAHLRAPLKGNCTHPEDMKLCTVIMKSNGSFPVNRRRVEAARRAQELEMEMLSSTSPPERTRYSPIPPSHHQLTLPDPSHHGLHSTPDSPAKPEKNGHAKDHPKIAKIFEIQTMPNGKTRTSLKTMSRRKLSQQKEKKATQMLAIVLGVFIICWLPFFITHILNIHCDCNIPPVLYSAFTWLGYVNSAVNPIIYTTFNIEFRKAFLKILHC
#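 Agonist mode: compounds alone added to overnight-plated D2 PathHunter cells for 90 min at 37 C, with 57 uM final dopamine (EC100) defining full response. Beta-arrestin recruitment detected by chemiluminescent reagent, read after 1 h at ambient temperature.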
# Six1-Eya2 blk – qHTS Assay for Inhibitors of the Six1/Eya2 Interaction | AlphaScreen GST-Six1/His-Eya2 binding, biochemical; hits give low values; control for the full effect not named in the record | AID 651725, 2012 | 360,000 compounds, 0.56% hits | activity change, % (test concentration not listed) | Homeobox protein SIX1 (Homo sapiens) + Protein phosphatase EYA2 (Homo sapiens), …; in the data active = activity change below about -65%; inconclusive = about -30% to -65%; inactive = above about -30%; further: on the % scale 0 is the no-effect control and ±100 the full control effect
#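 GST-Six1 + His-Eya2 (5X stock: 250/500 nM); Tris pH 8.0, 300 mM NaCl, 0.05% BSA, 0.02% Tween 20; GSH donor/Ni acceptor beads; 1 h 37 °C dark; AlphaScreen readout.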
# D2 potentiator – Beta-Arrestin HTS for Positive Allosteric Modulators of the Human D2 Dopamine Receptor: Potentiators | 360,000 compounds, 0.23% hits | potentiation, % (concentration not given with the values) | D(2) dopamine receptor (Homo sapiens), P14416 | DiscoveRx D2 beta-arrestin cells, luminescence, 90 min; 100% = 57 uM dopamine signal | AID 624464, 2012; active = potentiation of 50% or more; inconclusive = 30% to 50%; inactive = 30% or less;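 further: tested on top of an EC20 dose of dopamine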
#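 D2 cells co-treated with compound plus 50 nM dopamine (EC20) for 90 min at 37 deg C to detect potentiation. Beta-arrestin recruitment was read as enzyme-fragment luminescence after 1 h at ambient temperature. Full response was set by 57 uM dopamine.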
# CtBP-E1A inh – qHTS Assay for Inhibitors of the CtBP/E1A Interaction; AID 651724, 2012; activity change, % (test concentration not listed); AlphaScreen GST-E1A/His-CtBP binding, 1536-well; hits give low values; control for the full effect not named in the record; CtBP / adenovirus E1A interaction (AlphaScreen); 340,000 compounds, 0.49% hits; in the data active means activity change below about -65%; inconclusive means about -30% to -65%; inactive means above about -30%; further: on the % scale 0 is the no-effect control and ±100 the full control effect
#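 GST-E1A and His-tagged CtBP (125 nM each as 5X stock) were preincubated with pin-transferred compound for 2 h at 37 °C in the dark, then glutathione donor and nickel acceptor beads were added for 1 h before AlphaScreen reading.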
# gsp antagonist – qHTS for Antagonists of gsp, the Etiologic Mutation Responsible for Fibrous Dysplasia/McCune-Albright Syndrome: qHTS. gsp-mutant cells, cAMP HTRF, 30 min; control for the full effect not named in the record. Potency, µM (doses to about 76.9 µM), for the others: at the highest dose activity change, negative = inhibition, most hits filed as inhibitors. 340,000 compounds, 0.4% hits. AID 624288, 2012; active = falling curve of any shape with a large fitted effect; inconclusive = falling curve, mostly with a smaller effect; inactive = flat or rising curve; cell line not stated here;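 further: intracellular cAMP measured with PDE inhibitor Ro 20-1724 present during compound exposure; potency means the concentration at half of the fitted maximal effect; on the % scale 0 is the no-effect control and ±100 the full control effect; nearly all actives have a fitted effect of over 65% in size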
#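 Measurement of cellular cAMP by homogeneous time-resolved fluorescence following a 30 min compound exposure at 37C. The PDE inhibitor […] was present throughout; the assay buffer was DPBS with 0.05% BSA and 0.005% Tween 20.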
# An asterisk follows results filed as active; ? = inconclusive; . = not tested or not shown; [ ] = remark or other dose.
# Each structure is followed by: gsp agonist	gsp antagonist	CtBP-E1A inh	D2 agonist	Six1-Eya2 blk	D2 potentiator
- CCN(CC)c1ccc(NC(=S)NC(=O)C2CCC2)cc1
    -10%	-2%	?	9.4	?	-13
- COc1cc(O)c(C(C)=O)c2c1C=CC(C)(C)O2
    .	2%	10	-2.8	9	-19
- CCOc1ccc(NC(=O)COc2ccc(-n3cnnn3)cc2)cc1
    -18%	3%	5	5.4	7	-2
- Cc1ccccc1C(=O)O/N=C(\N)Cc1cccs1
    ?	12%	9	?	15	12
- Nc1c(C(=O)OCC(=O)Nc2cccc([N+](=O)[O-])c2)[nH]c(=O)[nH]c1=O
    -2%[15.4 µM]	4%	-1	-3.3	?	-13
- CCCCn1c(NCCO)nc2ccccc21
    4%	4%	-23	-2.6	2	-7
- Cc1cc(C)c(C(=O)c2ccc(C(=O)N3CCCCC3)cc2)c(C)c1
    -28%	-11%	-5	3.2	-2	-11
- CN1CCN(c2oc(-c3cccs3)nc2S(=O)(=O)c2ccccc2)CC1
    -12%	4%	-3	-5.8	-9	-38
- CCCCn1c(SCC(=O)Nc2nnc(CC)s2)nc2c1c(=O)n(C)c(=O)n2C
    19%	4%	0	-2.3	6	-5
- O=C(COc1ccc2c(c1)OCO2)Nc1nncs1
    28%	1%	4	-1.2	-8	-7
- Cc1ccc(C(=O)OCc2cc3ccccc3[nH]c2=O)cc1
    12%	3%	-8	0.9	-1	-5
- CCOC(=O)c1c(CN2CCOCC2)oc2ccc(OC(C)=O)cc12
    8%[15.4 µM]	6%	7	6.0	-5	1
- CN(C)N1C(=O)/C(=C/c2ccco2)SC1=Nc1ccccc1
    2%[15.4 µM]	-8%	-22	-4.8	-18	-4
- COc1ccc(NC(=O)c2cccnc2SC)cc1S(=O)(=O)N1CCCCC1
    -17%	-1%	-15	-0.9	-15	-9
- C[N+](C)(C)CCCNC(=O)c1ccc(/C=N/O)nc1
    44%	10%	?	-2.4	-69*	-3
- COc1ccc(OC)c(NC(=O)c2cc(S(=O)(=O)N(C)C)ccc2N2CCCC2)c1
    -4%[15.4 µM]	-11%	-2	-3.8	-4	6
- C=CCc1ccc(OCC(O)CN2CCCCC2)c(OC)c1 (stereo not given)
    5%	-6%	5	-2.4	1	16
- O=C(COC(=O)c1cccc(O)c1)Nc1ccc(OC(F)F)cc1
    0%[15.4 µM]	8%	-3	3.1	-7	-6
- CCOC(=O)c1sc(=NC(=O)/C=C/c2cccs2)n(C)c1C
    -33%[15.4 µM]	4%	-8	-0.4	20	-2
- CCOCCCN1CC(C(=O)NCCc2ccc(C)cc2)CC1=O (stereo not given)
    ?	3%	5	1.1	7	14
- CCOC(=O)CSC1=C(C#N)C(c2ccccc2OC)CC(=O)N1 (stereo not given)
    -40%	2%	-2	1.1	-3	0
- Cc1ccc(NC(=O)c2ccc(NS(=O)(=O)/C=C/c3ccccc3)cc2)nc1
    5%	-1%	?	-1.8	-20	-11
- CCOc1cccnc1Sc1ccccc1
    -54%[inhibitor]	1%	0	-6.6	-1	-5
- C=C(C)CC1N(c2cccc(OC)c2)C(=O)[C@@H]2C(C(=O)O)[C@H]3C=C[C@@]12O3 (stereo not given in full)
    ?	15%	-6	-3.2	0	-13
- CN(C)/C=C1\Cc2ccccc2C1=O
    5%[15.4 µM]	8%	-1	-3.5	6	0
- COc1cccc(C(=O)OCC(=O)NCCC2=CCCCC2)c1
    -4%[15.4 µM]	1%	6	2.6	1	-31
- O=C(Cn1cc[n+](CC(=O)c2ccc(Cl)cc2Cl)c1)c1ccc(Cl)cc1Cl
    6%	-14%	23	2.3	17	-16
- Cc1ccc2c(c1)nnn2C1CCN(CC(=O)Nc2ccccc2N2CCOCC2)CC1
    -10%	-23%	-24	-1.0	-18	-20
- COc1ccc(-c2ccc(CN3C(C(C)C)C(=O)N(Cc4cn(Cc5ccco5)nn4)CCS3(=O)=O)cc2)cc1 (stereo not given)
    -17%	.	2	-0.8	-10	5
- CCCC[n+]1ccn(-c2nc3ccccc3nc2[N-]S(=O)(=O)c2ccc(C)cc2)c1
    -36%	0%	12	1.6	1	-10

# Pulled by compound from the list above (2):
# Each structure is followed by: gsp agonist	gsp antagonist	CtBP-E1A inh	D2 agonist	Six1-Eya2 blk	D2 potentiator
- COc1ccc(-c2ccc(CN3C(C(C)C)C(=O)N(Cc4cn(Cc5ccco5)nn4)CCS3(=O)=O)cc2)cc1 (stereo not given)
    -17%	.	2	-0.8	-10	5
- C=C(C)CC1N(c2cccc(OC)c2)C(=O)[C@@H]2C(C(=O)O)[C@H]3C=C[C@@]12O3 (stereo not given in full)
    ?	15%	-6	-3.2	0	-13

# Further structures
# Each structure is followed by: gsp agonist	gsp antagonist	CtBP-E1A inh	D2 agonist	Six1-Eya2 blk	D2 potentiator
- CC(Oc1ccc(F)cc1)C(=O)Nc1ccccc1C(=O)N1CCCCC1 (stereo not given)
    -37%[inhibitor]	9%	9	-0.7	4	-3
- O=c1nc2ccccc2c2n1CC(CN1CCN(C(c3ccccc3)c3ccccc3)CC1)N2 (stereo not given)
    13%[15.4 µM]	.	10	-0.5	0	-16
- CN(C)S(=O)(=O)c1cccc(NC(=O)COC(=O)[C@H](Cc2ccccc2)NC(=O)c2ccco2)c1
    33%[15.4 µM]	-28%	5	-1.7	6	-10
- CCN(CC)c1c(-c2ccccc2)c2cc(C)ccc2[nH]c1=O
    -46%[inhibitor]	-24%	-6	-6.4	5	-5
- CC(C)(C)NS(=O)(=O)c1ccc(NS(=O)(=O)Cc2ccccc2)cc1
    1%	11%	6	-0.5	0	-6
- CC(Oc1ccccc1)C(=O)N1CCC2(CC1)Oc1ccc(F)cc1C(=O)C21CC(c2ccc(Cl)cc2)=NO1 (stereo not given)
    -48%[inhibitor]	4%	-14	-3.3	-6	-17
- CC(=O)N1CC2(C)CN(C(C)=O)CC(C)(C1)C2O (stereo not given)
    -14%	2%	-6	-1.7	-5	0
- CCOc1cc(/C=C(\CC(=O)O)c2nc3ccccc3s2)ccc1OC
    -3%[15.4 µM]	-14%	-11	-2.8	6	-3
- COCCN(C(=O)CCc1nnc(CCc2c[nH]c3ccccc23)o1)C(C)C
    -25%	2%	1	-2.0	8	3
- Cc1cccc(OCC(=O)NCC(=O)N/N=C/c2cccs2)c1
    3%	4%	4	1.5	0	1
- CCOc1ccc(NC(=O)CN(C)C(=O)CN2C(=O)C3CCCCC3C2=O)cc1OCC (stereo not given)
    4%	-2%	.	-0.5	-2	-9
- O=C(NC1CCCCC1)c1ccc(CS(=O)Cc2ccccc2Cl)o1 (stereo not given)
    -21%	-4%	4	2.1	2	-8
- CC(C)n1c(/C=C/c2ccccc2)nc2ccccc21
    36%[15.4 µM]	-18%	11	-5.1	14	-2
- COC(=O)[C@H](Cc1ccccc1)NC(=O)[C@@H](N)CC(=O)OCc1ccccc1
    3%	10%	5	0.1	2	-10
- C=CCNC(=O)/C=C/c1ccc(C(C)C)cc1
    16%[15.4 µM]	6%	-4	-3.8	5	-13
- CCN(CC)S(=O)(=O)c1ccc(Cl)c(C(=O)Nc2nnc(C)s2)c1
    26%	-4%	-2	1.4	-2	2
- Oc1ccc(C2=CSC3=NCCN23)cc1O
    -1%	0%	.	?	2	-5
- CCN(CC)S(=O)(=O)c1ccc(N2CCCCC2)c(NC(=O)C2CCN(C(=O)c3ccc(F)cc3)CC2)c1
    -33%[15.4 µM]	-15%	0	1.7	1	-64
- O=C1c2ccccc2C(=O)c2c(NCCCN(CCO)CCO)cccc21
    -1%[15.4 µM]	?	-29	-13	?	-36
- CCOC(=O)N1CCC(N2C(=O)c3ccc(C(=O)NCCC(C)C)cc3C2=O)CC1
    6%	1%	4	-1.5	-1	-9
- CC1(C)Cc2c(sc3nc(NCCN4CCOCC4)n4ncnc4c23)CO1
    ?	8%	-4	-1.9	-5	-6
- Nc1nc(C23CC4CCC(CC(C4)C2)C3)cs1
    -22%	-7%	2	-1.2	-1	-1
- O=C(Nc1ccc(Cc2ccncc2)cc1)c1ccc(N2CCOCC2)c([N+](=O)[O-])c1
    -2%[15.4 µM]	-15%	-8	-0.3	-5	-7
- CC(Sc1nccn1C)C(=O)Nc1ccc(Cl)cn1 (stereo not given)
    13%[15.4 µM]	7%	6	4.5	0	-6
- Cc1ccc(NC(=O)Cc2sc(C)nc2-c2ccc(C)cc2)cc1
    -45%[inhibitor]	8%	2	-1.9	-4	-26
- CC(Sc1nnc2ccccn12)C(=O)Nc1ncc(Cl)cc1Cl (stereo not given)
    -2%	2%	2	-3.9	1	-6
- CC(=O)c1c(N2CCOCC2)nc(=S)n(-c2ccccc2)c1C
    -35%[inhibitor]	-6%	13	-1.4	6	-7
- CCC(C)(C)NC(=O)CN(Cc1ccco1)C(=O)CCC(=O)Nc1nccs1
    29%	-5%	3	3.1	-1	-3
- CCCNC(=O)C1(C)CCCN(C(=O)c2c(C)noc2C)C1 (stereo not given)
    .	.	0	-4.7	11	-3
- CCCn1c(SCC(=O)Nc2ccc(C)c(S(=O)(=O)N3CCOCC3)c2)n[nH]c1=O
    -2%	9%	7	0.1	6	2
- NC(=O)Cn1nc(-c2ccccc2)nc1-c1ccccc1
    -17%[15.4 µM]	3%	3	-1.0	-6	-8
- CCOC(=O)c1nn(-c2ccc(Cl)cc2)c2nc(-c3ccc(C)cc3)c(C#N)c(=O)n12
    -3%	-20%	5	-7.1	8	-11
- COc1ccc(C(=O)N/N=C/c2ccc(OC)c(CN3CCN(c4ccc(F)cc4)CC3)c2)cc1
    -1%[15.4 µM]	9%	-4	1.4	-6	0
- FC(F)(F)c1cnc(COc2cc(Cl)cc(Cl)c2)c(Cl)c1
    0%	-5%	10	-0.4	21	-1
- C[C@@H]1CN([C@@H](C)CO)C(=O)CCCn2nncc2CO[C@H]1CN(C)Cc1ccc(C(F)(F)F)cc1
    ?	.	0	0.5	8	-4
- NC(=O)C1c2ccccc2Oc2ccccc21
    -14%	16%	5	4.8	-9	-4
- Cc1ccc(C)c2c1cc(C)c1nnc(SCC(=O)N3CCCc4ccccc43)n12
    13%	6%	-13	0.8	11	-10
- O=C1C=C(NCc2ccco2)CCC1
    -18%	1%	9	-1.3	2	16
- CC=C1OC(n2cnc3c(N)ncnc32)C(O)C1O (stereo not given)
    .	.	11	-3.3	11	-3
- Cc1cc(C(=O)N2CCN(C(c3ccccc3)c3ccccc3)CC2)on1
    -10%	-16%	0	-2.7	19	-5
- CCc1ccccc1N=Cc1c(C)c(C#N)c2[nH]c3ccccc3n2c1=O
    -18%	-1%	-1	-2.8	2	-7
